Assay outcomes: PubChem, ICCB-Longwood Screening Facility, Harvard Medical School
MgrA DNA FP = S. aureus MgrA activity modulators, primary screen, biochemical, S. aureus Newman, fluorescence polarization; MgrA-DNA binding; inhibition, %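 (about 10 µg/mL by stock and volumes)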; actives 0.13% (n = 84,000); AID 602314, 2012;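 active = above 50% in either of two replicates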;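 note: 0% = protein plus DNA without compound and 100% = DNA alone without protein; higher means less MgrA bound to DNA so lower polarization; one replicate is shown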
Sa helicase inh = inhibitors of S. aureus replicative helicase, primary screen, biochemical, fluorescence unwinding readout; replicative DNA helicase (DnaC/DnaB), Staphylococcus aureus; purified S. aureus helicase, fluorescence unwinding assay; about half of the hits fall short of the stated cut; inhibition, %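 (tested at about 80 µM)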; actives 0.05% (n = 120,000); AID 485395, 2010;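 active = both duplicates at 50% or more, or one of them with a favoured structure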;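 note: 0% = mean of negative control wells and 100% = mean of positive control wells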
* hit, by the source's call.

What do the screens show for `CCOc1ccc2[nH]c(=O)c(C(c3nnnn3CCOC)N3CCc4ccccc43)cc2c1` (stereo not drawn)?
MgrA DNA FP: -0.9; Sa helicase inh: -3.0

How did Cc1cc(NC(=O)c2ccc(COc3ccc(Cl)c(C)c3)o2)no1 do in these assays?
MgrA DNA FP: 2.6; Sa helicase inh: 6.0

What do the screens show for `CC1(C)CC(N(Cc2cccs2)C(=O)c2ccco2)CCO1` (stereo not drawn)?
MgrA DNA FP: -1.5; Sa helicase inh: 2.0

Results for Cc1onc(-c2ccccc2Cl)c1C(=O)NCCSCc1ccco1 ?
MgrA DNA FP: -1.2

Results for Cc1ccc(NS(=O)(=O)c2cc(-c3cc(C)no3)ccc2C)nc1 ?
Sa helicase inh: 4.0

What do the screens show for `Cc1cc(C(=O)COC(=O)/C=C/c2ccc(S(=O)(=O)N3CCOCC3)cc2)c(C)n1C`?
Sa helicase inh: -6.0

How did O=C(O)/C=C/C(=O)Nc1ccc(-n2nccc2C(F)(F)F)cc1 do in these assays?
MgrA DNA FP: -3.4

How did O=C(CSc1nnc(Cc2cc(=O)[nH]c(=O)[nH]2)n1-c1ccccc1)NCc1ccco1 do in these assays?
Sa helicase inh: -11.0

What do the screens show for `CCc1nc(SC)c(C#N)c2c1CCCC2`?
MgrA DNA FP: -1.7; Sa helicase inh: -3.0

What do the screens show for `COc1cccc(NC(=O)c2cnccc2C(F)(F)F)c1`?
MgrA DNA FP: -1.9

How did O=C(CN1CCCCCCC1)N/N=C/c1cccs1 do in these assays?
MgrA DNA FP: -1.9

How did CN1c2ccccc2-c2nc3ccccc3n2C1c1ccccc1 (stereo not drawn) do in these assays?
MgrA DNA FP: 0.3; Sa helicase inh: 3.0

Results for CCOC(=O)N1CCN(Cc2nnc(-c3cccc(Br)c3)o2)CC1 ?
Sa helicase inh: -33.0

How did CCCCC1(O)CCN(Cc2ccccc2)CC1 do in these assays?
MgrA DNA FP: -3.2

Results for O=c1ccc(-c2nc3ccccc3[nH]2)n[nH]1 ?
Sa helicase inh: 16.0

What do the screens show for `COc1ccc2c(c1)[C@@]1(C)CCC[C@](C)(CO)C1CC2` (stereo partly drawn)?
MgrA DNA FP: -2.4; Sa helicase inh: 10.0

How did CCN(CC)CCN1C(=O)c2ccccc2NC1c1ccc(Br)cc1 (stereo not drawn) do in these assays?
MgrA DNA FP: 0.1; Sa helicase inh: 2.0

What do the screens show for `N#CC(C#N)=CN1CCC(C(=O)c2ccccc2)CC1`?
Sa helicase inh: -13.0

What do the screens show for `Cc1cc(NC(=O)CSC2=NN3CCCC(=O)N=C3S2)no1`?
Sa helicase inh: -2.0

Results for COc1ccc(C(=O)Oc2c(C)occc2=O)cc1OC ?
Sa helicase inh: -10.0

How did O=C(NCC1CCCO1)C1c2ccccc2C(=O)N1C1CCCCCC1 (stereo not drawn) do in these assays?
MgrA DNA FP: 0.7; Sa helicase inh: 4.0

Results for O=C(Nc1ccc(Cl)c(Cl)c1)N1CCC(O)CC1 ?
MgrA DNA FP: 0.8

How did CC1=C(C(=O)c2ccccc2)C(c2ccccc2C)NC(=O)N1 (stereo not drawn) do in these assays?
Sa helicase inh: -2.0

Results for COc1cc(/C=C2\C(=O)NC(=O)N(c3ccccc3)C2=O)ccc1OCc1ccc(C(=O)O)cc1 ?
MgrA DNA FP: 13.0

Results for CCNc1nc(NCC)n2c(SCC(=O)N(c3ccccc3)c3ccccc3)nnc2n1 ?
MgrA DNA FP: 1.5; Sa helicase inh: -1.0

How did COC(=O)c1sccc1N/C=C(\C#N)C(=O)C1CC1 do in these assays?
MgrA DNA FP: -0.1

Results for COc1ccc(C2Nc3cc(C)ccc3O2)cc1OC (stereo not drawn) ?
MgrA DNA FP: -5.4

How did C=CCNc1nnc(SCC(=O)N2CCC(C(N)=O)CC2)s1 do in these assays?
MgrA DNA FP: -1.6; Sa helicase inh: 6.0

How did COc1ccccc1C(=O)N/C(=C\c1ccccc1)C(=O)O do in these assays?
MgrA DNA FP: -1.7; Sa helicase inh: 6.0

How did CC(C)(C)C1NC(C(=O)O)CS1 (stereo not drawn) do in these assays?
MgrA DNA FP: -2.5

Results for CC(C)COC(=O)/C=C/c1ccccc1 ?
MgrA DNA FP: 4.8; Sa helicase inh: 3.0

What do the screens show for `Nc1nc(CCOc2ccc(F)cc2)cs1`?
Sa helicase inh: 10.0

What do the screens show for `CSc1nnc(C(C)(C)C)c(=O)n1/N=C/c1c(O)ccc2ccccc12`?
MgrA DNA FP: 1.4; Sa helicase inh: 15.0

What do the screens show for `COc1c(Cl)cc(C(=O)N2N=N2)cc1Cl`?
MgrA DNA FP: -6.0; Sa helicase inh: -3.0

What do the screens show for `CCN(c1cccc(C)c1)S(=O)(=O)c1ccc2[nH]cc(C(=O)NCCc3ccccc3)c(=O)c2c1`?
MgrA DNA FP: -0.2; Sa helicase inh: -2.0

How did CC(CCc1ccccc1)NC(=O)CN1CCN(S(=O)(=O)c2cccs2)CC1 (stereo not drawn) do in these assays?
Sa helicase inh: 4.0

What do the screens show for `COC(=O)c1cccc(OCC(O)CNC2CCN(Cc3ccccc3)CC2)c1` (stereo not drawn)?
Sa helicase inh: -4.0

What do the screens show for `COc1ccc(C(=O)ON=C2CSC(C)SC2)cc1` (stereo not drawn)?
Sa helicase inh: 14.0

Results for O=C(NC(=O)c1ccccc1)Nc1ccccc1 ?
Sa helicase inh: 8.0

What do the screens show for `COCC(C)NCc1cccc(Oc2ccccc2)c1` (stereo not drawn)?
MgrA DNA FP: -5.0; Sa helicase inh: -1.0

Ordered by heavy-atom count (high to low): part of the list above.
What do the screens show for `COC(=O)c1cccc(OCC(O)CNC2CCN(Cc3ccccc3)CC2)c1` (stereo not drawn)?
Sa helicase inh: -4.0

How did CC(CCc1ccccc1)NC(=O)CN1CCN(S(=O)(=O)c2cccs2)CC1 (stereo not drawn) do in these assays?
Sa helicase inh: 4.0

How did CC1=C(C(=O)c2ccccc2)C(c2ccccc2C)NC(=O)N1 (stereo not drawn) do in these assays?
Sa helicase inh: -2.0

Results for COc1ccc(C2Nc3cc(C)ccc3O2)cc1OC (stereo not drawn) ?
MgrA DNA FP: -5.4

How did COC(=O)c1sccc1N/C=C(\C#N)C(=O)C1CC1 do in these assays?
MgrA DNA FP: -0.1

What do the screens show for `Nc1nc(CCOc2ccc(F)cc2)cs1`?
Sa helicase inh: 10.0

What do the screens show for `COc1c(Cl)cc(C(=O)N2N=N2)cc1Cl`?
MgrA DNA FP: -6.0; Sa helicase inh: -3.0

(cont.)
What do the screens show for `CC(C)NC(=S)N1CCN(c2ccc(N3CCOCC3)nn2)CC1`?
MgrA DNA FP: -0.2; Sa helicase inh: 9.0

How did CCCn1c(C)cc(C(=O)CN2C(=O)NC3(CCCCCC3)C2=O)c1C do in these assays?
Sa helicase inh: -18.0

Results for Cn1nc(CC#N)c(C#N)c1N ?
MgrA DNA FP: 0.1

Results for COC(=O)c1ccccc1Oc1ccccc1OC ?
MgrA DNA FP: 0.1; Sa helicase inh: 3.0

Results for COCn1c(=O)[nH]c2ccccc21 ?
Sa helicase inh: 10.0

How did CC(C)/C=C1\CC/C(=C\c2ccccn2)C1=O do in these assays?
Sa helicase inh: 33.0

Results for COc1cccc(C2CC(=O)NC(NC(=O)c3cccc(Cl)c3)=N2)c1OC (stereo not drawn) ?
Sa helicase inh: 21.0

How did Cc1ccc(/C=C2/Sc3ccc(C(=O)NCCN4CCOCC4)cc3NC2=O)cc1 do in these assays?
MgrA DNA FP: 2.4; Sa helicase inh: 14.0

How did O=C(O)c1ccc(-n2cnc3ccccc32)cc1 do in these assays?
Sa helicase inh: 14.0

What do the screens show for `Cc1cccc(Nc2nc3ccccc3nc2-n2nc(C)cc2C)c1`?
MgrA DNA FP: 0.5; Sa helicase inh: 10.0

How did CCOC(=O)/C=C1\SCC(=O)N1Cc1nc(N)nc(Nc2ccccc2C)n1 do in these assays?
Sa helicase inh: 4.0

Results for Cc1ccc(C=Nc2ccccc2Br)o1 ?
MgrA DNA FP: 0.8; Sa helicase inh: -28.0

How did CC(=O)c1cc(Cl)cc(Cl)c1OC(=O)c1c(-c2c(Cl)cccc2Cl)noc1C do in these assays?
MgrA DNA FP: 0.2

What do the screens show for `O=C1c2ccccc2C(=O)C1C1=Nc2ccccc2NC(c2ccccc2)C1` (stereo not drawn)?
MgrA DNA FP: -3.3; Sa helicase inh: 2.0

How did CCN(CC)c1nc(=S)nc(NC(C)(C)C)[nH]1 do in these assays?
MgrA DNA FP: 8.1; Sa helicase inh: 13.0

Results for CS(=O)(=O)c1ccc2nc(NC(=O)CN3C(=O)CCC3=O)sc2c1 ?
MgrA DNA FP: -4.4

Results for O=C(O)CNS(=O)(=O)c1cccs1 ?
MgrA DNA FP: -1.2; Sa helicase inh: -9.0

How did CC1CCN(C(=O)COC(=O)c2ccccc2C(=O)c2ccccc2)CC1 do in these assays?
MgrA DNA FP: -2.3; Sa helicase inh: -12.0

How did CCc1cccc2c(C(=O)COC(=O)c3c(C)noc3C)c[nH]c12 do in these assays?
Sa helicase inh: -4.0

How did O=CN1CCN(S(=O)(=O)c2ccc(F)c(F)c2)CC1 do in these assays?
Sa helicase inh: -3.0

The closing 2 entries of the section before come first, to join the parts:
How did CCc1cccc2c(C(=O)COC(=O)c3c(C)noc3C)c[nH]c12 do in these assays?
Sa helicase inh: -4.0

How did O=CN1CCN(S(=O)(=O)c2ccc(F)c(F)c2)CC1 do in these assays?
Sa helicase inh: -3.0

How did O=C(COc1ccc2c3c(c(=O)oc2c1)CCC3)Nc1ccccc1N1CCOCC1 do in these assays?
Sa helicase inh: 12.0

How did COCc1cc(C)nc(N2CCOCC2)c1C#N do in these assays?
MgrA DNA FP: 0.1; Sa helicase inh: 10.0

What do the screens show for `O=C(/C=C/c1ccc(F)cc1)N1CCN(C/C=C/c2ccccc2)CC1`?
Sa helicase inh: 8.0

What do the screens show for `CCOC(=O)c1c(C)n(C)c2c1cc(OC(=O)c1cccc(Cl)c1)c1ccccc12`?
MgrA DNA FP: 3.3

How did COc1cc(/C=C(\NC(C)=O)C(=O)O)ccc1OCc1ccccc1 do in these assays?
MgrA DNA FP: -0.8

Results for O=C(c1ccc(S(=O)(=O)NCC2CCCO2)cc1)N1CCc2ccccc21 (stereo not drawn) ?
Sa helicase inh: -15.0

Results for C=CCN1C(=O)/C(=c2\sc3n(c2=O)C(c2ccc(OC)c(OC)c2)C(C(=O)OCC)=C(C)N=3)c2ccccc21 (stereo not drawn) ?
MgrA DNA FP: 0.0

Results for CC(=O)OCC1OC(OC(C)=O)C(O)C(OC(C)=O)C1OC(C)=O (stereo not drawn) ?
MgrA DNA FP: 0.2; Sa helicase inh: -2.0

What do the screens show for `CC(c1ccccc1)N1CSC(=S)N(C(C)c2ccccc2)C1` (stereo not drawn)?
MgrA DNA FP: 0.4

How did Cn1c(Cc2cccs2)nnc1SCC(=O)c1ccc2c(c1)OCO2 do in these assays?
Sa helicase inh: 10.0

What do the screens show for `CC(CCc1ccco1)NC(=O)c1cccc2c1C(=O)N(C1CCCCC1)C2` (stereo not drawn)?
MgrA DNA FP: 0.2; Sa helicase inh: 4.0

What do the screens show for `CCCS(=O)(=O)c1cc2ccccc2oc1=O`?
MgrA DNA FP: -0.6

How did CC1=C/C(=N\Nc2ccc(C(F)(F)F)cn2)CC(C)(C)C1 do in these assays?
Sa helicase inh: -11.0

What do the screens show for `Cn1c(SCC(=O)NCc2ccccc2)nnc1-c1ccc2ncccc2c1`?
MgrA DNA FP: -2.5

Results for O=C(O)c1oc2ccccc2c1COc1ccccc1 ?
MgrA DNA FP: 1.2; Sa helicase inh: 4.0

How did CCOC(=O)CSc1ncnc2nc[nH]c12 do in these assays?
Sa helicase inh: -22.0

Results for CC(=O)N[C@H](C(=O)O)C(C)C ?
Sa helicase inh: 3.0

Results for FC(F)Oc1ccc(NC(=S)NNc2ccc(Cl)nn2)cc1 ?
Sa helicase inh: -1.0

Results for CCN(CC)C(=O)Oc1cc(COC)nc(-c2ccccc2)n1 ?
MgrA DNA FP: -3.5

How did CC1(C)/C(=N\O)[C@]2(C)CCC1C2 do in these assays?
MgrA DNA FP: -2.4

How did Cc1ccc(C)c(C(=O)N(CCC#N)Cc2cccnc2)c1 do in these assays?
MgrA DNA FP: 0.0; Sa helicase inh: -9.0

How did CC(C)Cn1c(=O)n(C)c(=O)c2[nH]cnc21 do in these assays?
MgrA DNA FP: -1.0

Results for O=C(Nc1ccc2[nH]ncc2c1)C1CCC1 ?
MgrA DNA FP: 2.1; Sa helicase inh: 20.0

Results for CCOC(=O)C1=C(C)N=c2s/c(=C\c3cccc(Br)c3)c(=O)n2C1c1ccc2c(c1)OCO2 (stereo not drawn) ?
MgrA DNA FP: -2.3

How did CN(C(=O)Nc1ccc(Cl)cc1)C1CC2C=CC1C2 (stereo not drawn) do in these assays?
MgrA DNA FP: -0.9

Results for N#CCSc1nc(N)cc(N)n1 ?
MgrA DNA FP: 1.1; Sa helicase inh: -1.0

What do the screens show for `COc1ccc(CNc2nc(-c3ccc(OC)cc3)no2)cc1`?
MgrA DNA FP: 8.8; Sa helicase inh: 0.0

Results for O=C(O)COc1ncnc2ccccc12 ?
MgrA DNA FP: -2.2; Sa helicase inh: -15.0

What do the screens show for `C/C(=N\NC(=O)c1ccccc1NS(=O)(=O)c1cccs1)c1ccco1`?
Sa helicase inh: 0.0

How did CCC(C(=O)N1CCCC1)n1nc(C)c2sc3ccccc3c2c1=O (stereo not drawn) do in these assays?
MgrA DNA FP: 1.4; Sa helicase inh: 7.0

Results for CCOC(=O)c1c(CN2CCN(Cc3ccccc3)CC2)n(C)c2cc(Br)c(OC)cc12 ?
MgrA DNA FP: -1.4

Results for CCc1ccc(C(C2C(=O)CC(C)(C)CC2=O)C2C(=O)CC(C)(C)CC2=O)s1 ?
MgrA DNA FP: 31.1; Sa helicase inh: 1.0

This is a subset; rates above refer to the full screens.
